ClpP mod = qHTS Assay for Activators of ClpP | ATP-dependent Clp protease proteolytic subunit (Bacillus subtilis (strain 168)), P80244 | purified B. subtilis ClpP, FRET peptide cleavage, 20 min | Potency, µM (top dose mostly 57.5 µM), for the others: top-dose activity change, negative = active | actives 1.9% (n = 340,000) | AID 651965, 2013; active = well fitted falling curve with a large enough effect; inconclusive = small, poorly fitted or top-dose-only effect; inactive = no such curve, though single readings can be large or run the other way; note: potency is the fitted concentration of half-maximal effect; the source files actives as falling curves though it sought activators and does not explain the sign; nearly all actives have a fitted effect of over 65% in size; many hits overshoot -100%
Target sequence (P80244 whole entry, looked up): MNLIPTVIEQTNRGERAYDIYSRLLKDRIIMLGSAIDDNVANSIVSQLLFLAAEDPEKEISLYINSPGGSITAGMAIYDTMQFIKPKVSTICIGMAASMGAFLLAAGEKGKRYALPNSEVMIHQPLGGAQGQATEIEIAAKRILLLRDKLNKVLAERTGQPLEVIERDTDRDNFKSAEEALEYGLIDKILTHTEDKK
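Buffer: 100 mM Tris/HCl pH8, 100 mM KCl, 0.05% low protease BSA, 2.5% glycerol, 0.01% Tween-20. ClpP 10 microg/mL final; 20 min RT; delta FRET normalized to ADEP and DMSO controls.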
TRPML1 inh = human mucolipin-1 channel inhibition. TRPML1-inducible cells, Ca2+ dye fluorescence, FDSS; active compounds read low; inhibition of EC80 agonist-evoked calcium signal. actives 0.02% (n = 390,000). Q9GZU1. AID 624415. activity change, negative = inhibition, % (no concentration beside the values); in the data active means activity change below about -50%; inconclusive means about -30% to -50%; inactive means above about -30%;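 note: stimulus is agonist 54-4 at its EC80 concentration; % is set by controls: 0 for no effect and ±100 for the full control effect; compound concentration not given in the record; the text of the record puts the active cut at -80%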
Target sequence (Q9GZU1 whole entry, looked up): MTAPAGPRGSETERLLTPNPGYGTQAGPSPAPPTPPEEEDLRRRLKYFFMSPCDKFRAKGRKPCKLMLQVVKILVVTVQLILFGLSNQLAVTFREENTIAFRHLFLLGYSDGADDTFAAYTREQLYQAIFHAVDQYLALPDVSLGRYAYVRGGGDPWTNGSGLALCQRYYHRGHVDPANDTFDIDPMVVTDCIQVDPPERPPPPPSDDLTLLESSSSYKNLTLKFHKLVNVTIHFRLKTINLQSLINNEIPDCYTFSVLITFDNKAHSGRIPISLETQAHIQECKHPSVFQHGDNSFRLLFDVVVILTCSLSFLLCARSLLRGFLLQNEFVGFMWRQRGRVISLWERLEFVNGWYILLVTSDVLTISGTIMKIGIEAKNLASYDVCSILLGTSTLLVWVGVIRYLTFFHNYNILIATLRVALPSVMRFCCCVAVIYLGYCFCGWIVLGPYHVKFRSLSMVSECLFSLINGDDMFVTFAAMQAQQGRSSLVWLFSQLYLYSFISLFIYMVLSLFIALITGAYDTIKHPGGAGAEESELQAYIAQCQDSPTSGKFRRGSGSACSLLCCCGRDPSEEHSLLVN
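TRPML1-DL cells, Tet-induced overnight (~16 h, 37 °C) at 1,500 cells/well, were loaded with Ca8 no-wash dye plus quencher for 45-90 min at room temperature. Compounds were pinned during FDSS kinetic reading; agonist 54-4 at EC80 (4 uM final) then added.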
* marks the source's active call; other numbers are inactive results; ? = inconclusive. An excerpt; rates above refer to the full screens.

SMILES	ClpP mod	TRPML1 inh
Cc1c(NC(=O)c2cc(=O)c3cc(Cl)ccc3o2)c(=O)n(-c2ccccc2)n1C	-1.6%	-3.2
Cc1cc(C)cc(NC(=O)NCCc2c(C)nn(C)c2C)c1	0.9%	-9.3
COc1cccc(N2CCN(c3ncnc4c3c(-c3ccccc3)cn4-c3ccc(F)cc3)CC2)c1	-2.1%	6.8
CN(C)c1ccc(NC(=O)Nc2ccc3c(c2)c(=O)n(C)n3Cc2ccccc2)cc1	-17.7%	6.8
Cc1ccc(OCC(=O)Nc2ccc(C(=O)OCc3cc(=O)n4c(C)csc4n3)cc2)cc1	-3.7%	14.1
CCc1ccccc1NC(=O)CSc1ncc(S(=O)(=O)c2ccccc2)c(=O)[nH]1	0.0%	14.0
Cc1ccc(-c2nc(C(=O)NCc3ccc(Cl)cc3)c3n2CCCCC3)cc1	-22.1%	3.2
O=C(Nc1cc(Cl)ccc1O)c1cc2nc(-c3ccc4c(c3)OCO4)cc(C(F)(F)F)n2n1	-3.7%	-8.6
CCOc1ccc(Sc2cc(C(=O)NCc3ccc(C)cc3)c3ccccc3n2)cc1	1.0%	4.9
N#Cc1c(C(F)(F)F)cc(-c2ccc(F)cc2)nc1SCC(=O)Nc1ccccc1	4.1%	16.4
CCc1ccccc1NC(=O)CCS(=O)(=O)c1cccc2nonc12	-0.4%	-2.9
Cc1ccc(-n2ncc(C(=O)N3CCN(c4cc(Cl)ccc4C)CC3)c2C2CCN(C(=O)OC(C)(C)C)CC2)cc1	0.7%	12.0
Cc1ccc(N(Cc2cccs2)C(=O)COc2ccccc2[N+](=O)[O-])cc1	-0.8%	50.3
COc1ccc(NC(=O)c2cc3c(=O)n(Cc4cccnc4)ccc3nc2C)c(OC)c1	-1.8%	15.1
COc1ccc(OC)c(NC(=O)Cn2c(=O)n(-c3ccc(Cl)cc3)c(=O)c3c(C)c(C)sc32)c1	2.2%	6.2
Cc1cccc(C)c1Nc1sc(C(=O)c2ccccc2)c(N)c1C(=O)Nc1ccc(F)cc1	0.1%	15.9
Cc1cccc(-n2ncc(C(=O)N3CCN(C4CCCCC4)CC3)c2C2CCN(C(=O)OC(C)(C)C)CC2)c1	2.2%	?
Cn1cnc(S(=O)(=O)N2CCC(C(=O)NCc3ccc(Cl)cc3)CC2)c1	-2.8%	14.2
CCOC(=O)c1cnc2cc(C(F)(F)F)ccc2c1Nc1ccc(F)cc1F	-0.4%	30.7
COc1cccc(C2C(C(=O)Nc3ccc(C)cc3C)=C(C)Nc3nc4ccccc4n32)c1OC (stereo not drawn)	-21.8%	28.0
CCOC(=O)c1ccc2c(c1)[C@@H]1C=CC[C@@H]1[C@H](c1cccc(OC)c1OC)N2	-27.7%	3.3
CCOC(=O)c1cccc(NC(=O)c2ccc3nc(CCc4ccccc4)oc3c2)c1	-4.0%	4.8
CCOC(=O)c1c(N)n(-c2ccc(C)c(Cl)c2)c2nc3ccccc3nc12	4.3%	-15.9
O=C1CC(c2nc(-c3ccccc3)no2)CN1c1ccc2c(c1)OCCO2 (stereo not drawn)	0.3%	1.8
CCOc1ccc(CNC(=O)c2cc(=O)[nH]c3ccc(S(=O)(=O)N4CCCCC4)cc23)cc1	-2.7%	1.7
COC(=O)c1scc(-c2ccc(C)cc2)c1S(=O)(=O)N1CCN(c2cccc(OC)c2)CC1	-0.3%	12.6
COc1ccc(OC)c(-n2c3c(cc(-c4nc(-c5ccc(Cl)cc5)cs4)c2=O)C(=O)CC(C)(C)C3)c1	-13.3%	15.6
COc1cc(Cl)c(C)cc1NC(=O)c1nn(C)c2c1CSc1ccccc1-2	1.1%	-1.8
Cc1ccc(Cn2c(=O)n(Cc3ccccc3Cl)c(=O)c3cccnc32)cc1	-4.9%	-6.6
CCCC(=O)Nc1cc(-c2nnc3c4ccccc4c(C)nn23)ccc1C	-7.9%	-3.4
CCCn1c(=N)c(C(=O)NC2CCCC2)cc2c(=O)n3cc(C)ccc3nc21	-0.8%	3.5
O=C(Nc1cc(F)ccc1F)c1ccc(CN2CC(=O)N3CCCCC3C2=O)cc1 (stereo not drawn)	3.0%	32.0
CCn1c2ccccc2c2cc(NC(=O)COc3ccc(C)c(C)c3)ccc21	0.8%	16.6
O=C(NCc1ccc(Cl)cc1)C1CCN(c2ncnc3c2nc2n3CCCCC2)CC1	-4.6%	28.5
CC(=O)NCCNc1nc2cc(-c3ccc(Cl)cc3C)sc2c(=O)n1C	-7.2%	21.2
Cc1ccc(Cl)cc1NC(=O)c1oc2c(c1C)-c1[nH]ncc1CC2	-11.2%	5.1
Cc1ccc(C)c(N2CCN(CCCNC(=O)Nc3ccc(Cl)cc3)CC2)c1	-2.2%	-3.7
Cc1cccc(-n2c(=O)c3c(c4cc(C)ccc4n3C)n(C)c2=O)c1	4.4%	1.5
Cc1ccc(C)n1-c1nnc(N2CCCC(C(=O)NCc3cccc(Cl)c3)C2)s1 (stereo not drawn)	5.7%	-8.5
O=C(c1ccc2c(c1)N(Cc1ccc(Cl)cc1)C(=O)c1ccccc1S2=O)N1CCOCC1 (stereo not drawn)	-2.4%	-9.3

Five of the entries above in order of their number in TRPML1 inh, rising.
| SMILES | TRPML1 inh |
| --- | --- |
| COc1cc(Cl)c(C)cc1NC(=O)c1nn(C)c2c1CSc1ccccc1-2 | -1.8 |
| Cc1cccc(-n2c(=O)c3c(c4cc(C)ccc4n3C)n(C)c2=O)c1 | 1.5 |
| CCOC(=O)c1ccc2c(c1)[C@@H]1C=CC[C@@H]1[C@H](c1cccc(OC)c1OC)N2 | 3.3 |
| CCCn1c(=N)c(C(=O)NC2CCCC2)cc2c(=O)n3cc(C)ccc3nc21 | 3.5 |
| CCn1c2ccccc2c2cc(NC(=O)COc3ccc(C)c(C)c3)ccc21 | 16.6 |

Next records:
SMILES	ClpP mod	TRPML1 inh
COc1ccccc1NC(=O)c1ncoc1-c1ccco1	132.4%	32.4
COc1ccccc1C(=O)Nc1ccc(C(=O)OCc2cc(=O)n3nc(C)sc3n2)cc1	-27.3%	-27.9
Cc1ccc(N2CC(NC(=O)CCc3ccccc3)CC2=O)cc1C (stereo not drawn)	0.2%	-14.2
CCN(CC)CCCNC(=O)c1nn(C)c2c1CSc1ccccc1-2	-0.8%	-23.7
COc1ccc2c(c1)CCc1c(C(=O)Nc3c(C)nn(Cc4ccccc4Cl)c3C)noc1-2	-6.7%	13.3
COC(=O)N1CCCc2cc(S(=O)(=O)N3CCN(c4ccccc4)CC3)ccc21	-0.2%	-15.8
CCn1c(C)c(C)c2cc(C(=O)NCc3cccc(C)c3)ccc21	-7.7%	-8.0
CCc1ccccc1NC(=O)c1cc2c(Cl)nc3ccccc3c2s1	0.7%	-11.7
CCOc1ccc(NC(=O)CCC(=O)N2CC(C)Oc3ccc(C)cc32)cc1 (stereo not drawn)	1.0%	-12.5
Cc1ccccc1Nc1nnc(-c2ccc(C)c(S(=O)(=O)NCC3CCCO3)c2)c2ccccc12 (stereo not drawn)	-1.2%	19.7
O=C(O)c1sc(Nc2ccccc2)nc1-c1ccccc1	0.9%	1.3
CCOc1ccc(S(=O)(=O)N(CC(=O)NCCSCc2ccc(C)cc2)c2ccccc2)cc1	2.9%	-9.4
COc1ccc(/C=C/C(=O)Nc2cc(-c3nc4ccccc4o3)ccc2OC)cc1	-3.8%	-3.0
Cc1cccc(-c2nc(CCNC(=O)Cc3ccc(F)cc3)cs2)c1	-8.6%	-10.2
CCN(CC)C(=O)c1sc2c(c1C)c(=O)n(-c1ccccc1)c(=O)n2CC(=O)N(CC)c1cccc(C)c1	-0.2%	-13.0
Cc1cc(NC(=O)COCc2cc(-c3ccc(F)cc3)on2)ccc1Br	-4.4%	13.0
COCCCNC(=O)C1CCN(c2ncnc3c2nc2n3CCCCC2)CC1	-2.9%	-11.3
CCOCCCNc1nc2c(S(=O)(=O)c3ccc(CC)cc3)nnn2c2ccc(Cl)cc12	3.7%	29.0
COc1ccc(OC)c(CNC(=O)c2cc3c(=O)oc4ccc(C)cc4c3s2)c1	-3.4%	-0.8
COc1ccccc1CCNC(=O)C(=O)NCC(c1ccc2c(c1)OCO2)N1CCOCC1 (stereo not drawn)	1.5%	24.3

A stretch from the list above:
SMILES	ClpP mod	TRPML1 inh
COc1ccc(OC)c(CNC(=O)c2cc3c(=O)oc4ccc(C)cc4c3s2)c1	-3.4%	-0.8
COc1ccccc1CCNC(=O)C(=O)NCC(c1ccc2c(c1)OCO2)N1CCOCC1 (stereo not drawn)	1.5%	24.3

Remaining list, next part
SMILES	ClpP mod	TRPML1 inh
COc1ccc(-c2[nH]c(-c3ccc(OC)c(OC)c3)nc2SCC(=O)Nc2ccccc2)cc1	-15.3%	4.8
Cc1ccc(N2CCN(S(=O)(=O)c3cc(C(=O)Nc4cc(Cl)cc(Cl)c4)ccc3F)CC2C)cc1 (stereo not drawn)	-2.5%	?
COc1ccc(C2=NN(CC(=O)NCCCN(C)c3ccccc3)C(=O)CC2)cc1	1.6%	5.0
COC(=O)c1cc(NC(=O)Nc2ccc3snnc3c2)cc(C(=O)OC)c1	-4.4%	6.6
CCCCOc1ccccc1C1CC(=O)Nc2cc(C)c(C)cc21 (stereo not drawn)	-4.1%	-6.6
COc1ccc(NC(=O)c2cc(C3CCCCN3C(=O)OCC(C)C)on2)c(C)c1 (stereo not drawn)	-0.4%	13.1
CCCc1cc(=O)oc2cc(C)c3c(-c4ccccc4)c(C)oc3c12	?	-18.4
COc1ccc(OC)c(CCNC(=O)c2c(C)nn(-c3ccc(F)cc3)c2-n2cccc2)c1	-0.6%	17.7
CCCCc1nn2c(=O)cc(COC(=O)c3cccc(OC)c3)nc2s1	-6.4%	-0.4
CCOC(=O)c1sc(N2C(=O)c3oc4ccc(F)cc4c(=O)c3C2c2ccc(O)cc2)nc1C (stereo not drawn)	0.4%	-15.9
COc1ccc(CNC(=O)c2cnn3c(C)c(Cc4c(F)cccc4Cl)c(C)nc23)cc1	3.9%	-2.6
CCOC(=O)c1ccc(NC(=O)CC2Sc3ccc(C(F)(F)F)cc3NC2=O)cc1 (stereo not drawn)	?	0.9
CC(C)c1ccc(C2c3c(-c4ccccc4O)n[nH]c3C(=O)N2Cc2ccncc2)cc1 (stereo not drawn)	0.4%	11.2
CCOc1ccc(CNC(=O)C2CCN(C(=O)N3CC(CC)Oc4ccc(C)cc43)CC2)cc1OC (stereo not drawn)	0.3%	-17.5
Clc1cccc(-n2cc(-c3ccccc3)c3c(N4CCCCC4)ncnc32)c1	?	12.6
COC(=O)c1cc2occc2n1CC(=O)Nc1ccc(C)cc1Cl	1.3%	-16.8
O=C(NCc1ccccc1Cl)C1CCCN(C(=O)c2cnn(-c3ccc(F)cc3)c2-n2cccc2)C1 (stereo not drawn)	-2.4%	2.9
COc1cc(NC(=O)c2cc3ccccn3n2)cc(OC)c1OC	-2.8%	-18.0
COc1ccc(-c2nc(CS(=O)CC(=O)NCCc3ccccc3)c(C)o2)cc1OC (stereo not drawn)	15.8µM*	14.7
Cc1ccc(C=C2SC(=S)N(CCCC(=O)Nc3cccc(C(=O)O)c3)C2=O)cc1	2.7%	-11.9
CCc1ccc(NC(=O)C2(c3cccs3)CCOCC2)cc1	-4.2%	5.5
O=C(Nc1ccc2c(c1)OCO2)c1cc(-c2ccc(Br)cc2)on1	-4.8%	35.6
CC(C(=O)Nc1cc(C(F)(F)F)ccc1Cl)n1nnc2sc3c(c2c1=O)CCCC3 (stereo not drawn)	-2.5%	-8.5
CCOc1ccc(C2C(C(=O)Nc3ccccc3C)=C(C)Nc3nnnn32)cc1 (stereo not drawn)	0.5%	25.8
COc1ccc(-c2noc(COc3cc(C)c(Br)c(C)c3)n2)cc1OC	2.1%	9.0
COc1ccc(CCNC(=O)C(C)n2nc(C)c3sc4ccccc4c3c2=O)c(OC)c1 (stereo not drawn)	1.5%	-1.4
CCCCn1cc(S(=O)(=O)c2ccc(OC)cc2)c(=O)c2cc(F)c(N3CCCC3)cc21	-25.8%	6.9
CCn1c(SCc2ccccc2)nnc1-c1nonc1NC(C)=O	0.3%	-6.8
CCOc1ccccc1NC(=O)C(C)Sc1nc(-c2ccccc2)c(C#N)c(=O)[nH]1 (stereo not drawn)	-1.7%	-17.6
Cc1ccc(S(=O)(=O)Nc2nc3n(n2)C(c2ccccc2Cl)C=C(c2ccccc2)N3)cc1 (stereo not drawn)	4.8%	-17.7
CCCCn1c(=N)c(C(=O)NC2CCCCC2)cc2c(=O)n3cccc(C)c3nc21	4.3%	-19.8
CCCCN(CC)CCCNC(=O)C1CCCN(c2ncnc3c2nc2n3CCCCC2)C1 (stereo not drawn)	-0.8%	7.8
CCCS(=O)(=O)Nc1cc(-c2cn3cccc(C)c3n2)ccc1C	4.1%	-11.9

Full records from above. Screens in order: ClpP mod, TRPML1 inh
`CCOc1ccccc1NC(=O)C(C)Sc1nc(-c2ccccc2)c(C#N)c(=O)[nH]1` (stereo not drawn) across the screens: -1.7%, -17.6
`CCn1c(SCc2ccccc2)nnc1-c1nonc1NC(C)=O` across the screens: 0.3%, -6.8
`O=C(Nc1ccc2c(c1)OCO2)c1cc(-c2ccc(Br)cc2)on1` across the screens: -4.8%, 35.6
`COc1ccc(CCNC(=O)C(C)n2nc(C)c3sc4ccccc4c3c2=O)c(OC)c1` (stereo not drawn) across the screens: 1.5%, -1.4

High-throughput results (PubChem)
